# High-throughput results deposited in PubChem BioAssay by ICCB-Longwood Screening Facility, Harvard Medical School.
# AID504770: E. coli YBA685 growth inhibition, screen for V. cholerae RctB inhibitors. E. coli YBA685 rctB-dependent plasmid, OD600 growth, 3 h; active compounds read low. z-score (concentration not given with the values). 130,000 tested, 0.27% active;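 active = z-score under -2 on both plates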;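 note: wells of about 30 µL received 100 nL stock; score is relative to mean and SD of the test wells; the first replicate is given; strong numbers were not always called active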
# Ba CapD inh: inhibitors of Bacillus anthracis CapD enzyme. purified CapD enzyme, fluorescence intensity read-out; active compounds read low; some hits fall short of the stated cut. z-score (concentration not given with the values). 140,000 tested, 0.23% active;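 active = z-score under -4 in either of two replicates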;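 note: stock transfer was 100 nL into about 40 µL; score is relative to mean and spread of the plate; one replicate is shown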
# * marks the source's active call; other numbers are inactive results; / = not tested or not shown.
SMILES,AID504770,Ba CapD inh
CC(=O)Nc1nc2ccc(S(=O)(=O)N3CCOCC3)cc2s1,-0.65,-0.11
Cc1ccc(-c2nc(NC(=O)c3snnc3C)sc2C)cc1Cl,0.45,0.41
O=C1CC(c2ccccc2Cl)NC(=O)N1 (centres undefined),-0.45,/
CC(C)(CC(=O)O)CC(=O)N1CCN(c2nc3ccc(Cl)cc3s2)CC1,/,-0.41
Cc1sccc1C1C(C#N)=C(N)N(c2ccc([N+](=O)[O-])cc2Cl)C2=C1C(=O)CC(C)(C)C2 (centres undefined),/,-0.62
O=C1C=C(N2CCOCC2)C(=O)c2ccccc21,0.45,0.69
COc1cc(C2NC(=O)NC(C)=C2C(=O)OCc2ccccc2)cc(Br)c1O (centres undefined),/,-0.14
CCC(C)C(C(=O)Nc1ccc(OC)c(OC)c1)N1Cc2ccccc2C1=O (centres undefined),-0.65,-0.64
COc1cc(NC(C)C(=O)N2CCCC2)cc(OC)c1OC (centres undefined),0.45,/
CCc1ccccc1N1CC(C(=O)O)CC1=O (centres undefined),-0.2,0.65
O=C(Nc1ccc(N2C(=O)C3C4C=CC(C4)C3C2=O)cc1)Nc1nncs1 (centres undefined),0.65,-1.4
CCOc1ccccc1-c1nc(-c2ccc(-c3ccc(OC)cc3)nc2OC)no1,-0.75,18
O=C(CC(c1ccccc1)c1ccccc1)Nc1ccc2c(c1)OCO2,/,0.16
CCc1cccc2c(/C=N/O)c[nH]c12,0.2,/
Cc1nnc(SC(=O)Cn2c3ccccc3c3ccccc32)s1,-0.1,0.32
Cc1ccccc1CSc1nccc(-c2cc(Cl)sc2Cl)n1,/,-0.33
CN(C)/C=C/C(=O)c1ccc2c(c1)CCC(C)(C)O2,0.6,-3.8
O=C(CN1C2=NCCCN2c2ccccc21)c1ccc(F)cc1,/,0.29
CCC(C)NC(=O)/C=C/c1ccc(OCc2ccc(Cl)cc2Cl)cc1 (centres undefined),/,0.2
CC1CC(C)CN(S(=O)(=O)c2ccc(C(=O)Nc3nccs3)cc2)C1 (centres undefined),1.2,/
Clc1ccc(SCc2cc(N3CCOCC3)nc(-c3ccccn3)n2)cc1,/,-0.22
O=C1CSC(c2cccc(Br)c2)N1c1cccc(C(F)(F)F)c1 (centres undefined),/,-1
O=C(COc1ccccc1)N(Cc1ccccc1O)c1ccccc1Cl,2.2,-0.42
Cc1[nH]n(-c2ccccc2)c(=O)c1C(c1ccc(OCc2ccccc2)cc1)c1c(C)[nH]n(-c2ccccc2)c1=O,/,-0.2
COc1cccc2c(=O)cc(C)n(CC(=O)Nc3ccccc3)c12,1,/
Cc1ccn2cc(C(=O)NC3CCCCC3)nc2c1,-0.95,/
COC(=O)c1cccc(NC(=O)C2COc3ccccc3O2)c1C (centres undefined),-1.1,-0.035
CCN(CC)CCCN=C1NC2CS(=O)(=O)CC2S1 (centres undefined),-0.9,-0.89
CC(=O)NC1CC(C)(C)NC(C)(C)C1,0.35,23
Cc1c(NC(=O)c2cccc3c(Br)cccc23)cccc1-c1nc2cc(Cl)ccc2o1,/,-1.5
CN(C)C=NC1=NN(c2ccccc2)CC1,-0.4,/
CN(C(=O)c1cccs1)c1ccccc1C(=O)O,-0.2,/
Cc1cc(C(=O)Nc2ccccc2N2CCCCC2)nn1C,-0.05,-0.19
CC1(C)CC(=O)C(C(c2ccc(Cl)cc2)C(C#N)C(N)=S)=C(O)C1 (centres undefined),1.1,-1.6
CCc1[nH]nc2c1C(c1ccccc1)C(C#N)=C(N)O2 (centres undefined),-0.1,-1.1
CCNC1(c2cccs2)CCCCC1=O (centres undefined),/,0.08
CCCCC(=O)NC(c1ccco1)c1cc(Cl)c2cccnc2c1O (centres undefined),0.05,0.48
O=C(O)CCNC(=O)c1ccc(NC(=O)C(c2ccccc2)c2ccccc2)cc1,0.05,1.9
Nc1ncnc2nc(SCCC(=O)O)[nH]c12,0.25,0.63
O=S(=O)(c1ccc(Cl)cc1)N1CCCC1c1nc(-c2ccccc2)no1 (centres undefined),0,/
COc1ccc(S(=O)(=O)N2CCCN(Cc3ccc(Cl)c(Cl)c3)CC2)cc1OC,/,0.17
COc1ccc(Cc2n[nH]c(=S)o2)cc1,-1.1,/
COc1ccc2c(c1C)CCC(C1(O)C(=O)N(C)c3ccccc31)C2=O (centres undefined),-0.4,0.34
Cc1nn(-c2ccccc2)cc1C1C=C(c2ccc(Cl)cc2)N=C2SCC(=O)N21 (centres undefined),0.8,0.66
COc1ccc(/C=C/C(=O)N2c3ccccc3C(C)(c3ccc(C)cc3)CC2(C)C)cc1 (centres undefined),/,-0.03
Cc1cc(C)cc(OCC(=O)N2CCN(Cc3ccccc3)CC2)c1,1.3,-0.76
CC(C)(C)c1csc(NC2=NCCC2)n1,-0.65,/
N#CCN(CC#N)S(=O)(=O)c1cc(Cl)ccc1Cl,-0.9,-0.03
COc1ccccc1NC(=O)c1c[nH]c2ccccc12,-0.95,-0.68
COC(=O)c1ccc(OC)c(CN2CCN(Cc3ccccc3Cl)S2(=O)=O)c1,0.1,-0.19

# Among those listed so far, these have a cyano group.
SMILES,AID504770,Ba CapD inh
Cc1sccc1C1C(C#N)=C(N)N(c2ccc([N+](=O)[O-])cc2Cl)C2=C1C(=O)CC(C)(C)C2 (centres undefined),/,-0.62
CC1(C)CC(=O)C(C(c2ccc(Cl)cc2)C(C#N)C(N)=S)=C(O)C1 (centres undefined),1.1,-1.6
CCc1[nH]nc2c1C(c1ccccc1)C(C#N)=C(N)O2 (centres undefined),-0.1,-1.1
N#CCN(CC#N)S(=O)(=O)c1cc(Cl)ccc1Cl,-0.9,-0.03

# Going on with the list:
SMILES,AID504770,Ba CapD inh
CCOc1ccccc1C1SCC(=O)Nc2c1c(=O)[nH]n2C1CCCC1 (centres undefined),-0.55,0.8
COc1ccc(C2Nc3cc(Cl)ccc3O2)cc1 (centres undefined),/,1.5
O=C(N/N=C/c1cccs1)C1=COCCO1,-0.9,/
CN(C)c1ccc(CN2CCN(CCOC(=O)NCc3ccc4c(c3)CCO4)CC2)cc1,/,-0.89
COC(=O)C1=NOC2C(=O)N(c3ccc(OC)cc3)C(=O)C12 (centres undefined),1,0.35
N#CC1=C(N)Oc2n[nH]c(-c3ccccc3)c2C1c1cccc(OC(=O)c2ccco2)c1 (centres undefined),/,-0.38
CCN(CC)/C(Sc1ccccc1)=C(/C(Cl)=C(Cl)Cl)[N+](=O)[O-],/,-1.4
Cc1nonc1OCC12CC3CC(CC(C3)C1)C2,-0.65,-0.72
O=C(NCCc1nnc2ccc(N3CCCCCC3)nn12)c1ccccc1,-1.6,/
Clc1cccc(NCc2nnc(SCc3ccccc3)o2)c1,-0.75,/
CCCCOC(=O)c1ccc(OC(=O)c2cccnc2)cc1,-0.15,0.16
CC(NC(=O)c1ccccc1C(=O)O)C12CC3CC(CC(C3)C1)C2 (centres undefined),-0.6,0.9
CON(C)C(=O)c1ccc(OCc2ccnc(Cl)c2)cc1,/,-0.075
O=C1C2=C(Nc3ccccc3SC2c2ccc(OCc3ccccc3)cc2)c2ccccc21 (centres undefined),/,-0.64
O=C(NCc1ccccn1)c1cccc2cc[nH]c12,/,3.4
NC1=NC(c2ccccc2)n2c(nc3ccccc32)N1 (centres undefined),-0.7,0.49
OC(CN1CCC(O)(c2ccc(Cl)cc2)CC1)c1ccccc1 (centres undefined),0.1,0.88
O=C(c1cnc2ccccn12)C(F)(F)Sc1ccccc1,0.1,-1.3
CCOc1ccc(C2=NN3C(C2)c2cccc(OC)c2OC3c2ccc(SC)cc2)cc1 (centres undefined),/,0.005
Cc1nnc2n1NC(=Nc1ccc(Br)cc1)CS2,0.1,0.65

# Quoted from the listing for reference:
SMILES,AID504770,Ba CapD inh
O=C(NCc1ccccn1)c1cccc2cc[nH]c12,/,3.4
NC1=NC(c2ccccc2)n2c(nc3ccccc32)N1 (centres undefined),-0.7,0.49
OC(CN1CCC(O)(c2ccc(Cl)cc2)CC1)c1ccccc1 (centres undefined),0.1,0.88
O=C(c1cnc2ccccn12)C(F)(F)Sc1ccccc1,0.1,-1.3
CCOc1ccc(C2=NN3C(C2)c2cccc(OC)c2OC3c2ccc(SC)cc2)cc1 (centres undefined),/,0.005
Cc1nnc2n1NC(=Nc1ccc(Br)cc1)CS2,0.1,0.65

# Next section.
SMILES,AID504770,Ba CapD inh
O=C1S/C(=C\c2ccc3c(c2)OCO3)C(=O)N1CNc1cccc(Br)c1,/,-0.75
c1coc(CNCC2OCc3ccccc3CO2)c1,0.45,0.22
CC(=O)Nc1ccc(C(F)(F)F)cc1[N+](=O)[O-],/,-0.58
CCSc1nnc(NC(=O)CSc2nc3c(c(=O)n2-c2ccc(F)cc2)SCC3)s1,/,-0.59
Cc1oc(-c2ccc(Cl)cc2)cc1C(=O)N1CCCC1,1.4,0.34
N#CCCN(C(=O)c1cncc(Br)c1)c1ccccc1F,-0.3,-0.72
N#CCCNCC1(c2ccccc2)CCCC1,/,-0.2
CC[n+]1ccccc1/C=C/N(C(C)=O)c1ccccc1,-0.1,48
O=C(O)COc1cccc2nsnc12,0.1,-0.64
O=C(NCc1ccco1)NC1CC(=O)N(c2ccccc2)C1 (centres undefined),-0.75,/
CCOc1ccc(N2C(=O)CC(Cc3ccccc3OC)C2=O)cc1 (centres undefined),-0.35,-0.55
CSc1cccc(NC(=O)CSc2nnc(Cc3ccccc3)o2)c1,-0.25,0.17
CCOC(=O)c1c(NC(=O)Cc2ccc(Cl)cc2)sc(C(=O)Nc2cc(C)ccc2C)c1C,/,-0.08
COc1ccccc1N(CC(O)Cn1c2ccccc2c2ccccc21)S(=O)(=O)c1ccccc1 (centres undefined),/,3.7
CC(C)(C)OC(=O)NC1CCN(C(=O)NC2CCCCC2)CC1,-2,-0.77
N#CSCC(=O)c1cccc2ccccc12,-0.45,2.5
CC(=O)Nc1ccc(S(=O)(=O)NC(C)C)cc1,-0.35,0.1
CCOC(=O)c1[nH]c(C)c(C(=O)N2CCC(C(=O)OCC)CC2)c1C,-0.6,/
COc1ccc(-c2ccnc(-c3ccc(OC(=O)c4ccco4)cc3)n2)cc1,/,-0.74
O=C1NC(=O)C(=Cc2ccccn2)C(=O)N1,/,0.58
O=C(c1ccc(NS(=O)(=O)/C=C/c2ccccc2)cc1)N1CCN(c2ncccn2)CC1,1.4,/
Cn1cc(CC(=O)NCCN2CCOCC2)c2ccccc21,-0.5,0.25
CC(Oc1cccc(Br)c1)C(=O)NN (centres undefined),-0.5,/
COCCNC(=O)c1ccc2c(=O)n(Cc3ccco3)c(SCC(=O)N3CCN(c4ccccc4)CC3)nc2c1,/,-0.59
CCOC(=O)c1c(NC(=O)c2ccccc2)sc2c1CCC2,0.05,0.66
Cc1ccccc1SCC(=O)O,-0.7,/
COc1ccc2cc(COC(=O)c3ccc(Br)o3)c(Cl)nc2c1,-0.3,/
Cc1c(OC(=O)c2ccco2)ccc2c(=O)c(-c3nc4ccccc4s3)coc12,-1,0.055
CC1=C2CCCC2CC/C1=N\NC(N)=O (centres undefined),/,0.055
COc1cccc(/C=C2/SC(=S)N(CCC(=O)N3CCCCC3)C2=O)c1,1.6,-0.045
O=C(CN1C(=O)/C(=C/c2ccccc2Cl)SC1=S)Nc1ccccc1C(F)(F)F,-0.5,2.1
COc1ccc(CNCC(O)(c2ccccc2)c2ccccc2)cc1OC,/,-0.075
COc1ccccc1NC(=O)Cn1cnc2sc(C(=O)Nc3ccc(C)cc3Br)c(C)c2c1=O,/,0.83
CCCCN(Cc1cc2cccc(C)c2[nH]c1=O)S(=O)(=O)c1ccccc1,-0.05,-0.52
Cc1ccc(C2C3=C(CCCC3=O)N(c3ccccc3)C(=N)/C2=C(/O)c2ccccc2)cc1 (centres undefined),/,-0.21
CCOC(=O)c1oc2c(CN3CCN(C)CC3)c(O)ccc2c(=O)c1-c1ccc(OC)cc1,-0.65,1.3
Cc1cc(OCc2nc(-c3ccc(OCC(N)=O)cc3)no2)cc(C)c1Cl,-0.3,81
COC(=O)CN1C(=O)CN(c2nc(N(C)C)nc(N(C)C)n2)C1=O,/,-0.38
O=c1c(C=Nc2ccc([N+](=O)[O-])cc2)c(C(F)(F)F)[nH]n1-c1ccc([N+](=O)[O-])cc1,/,-1.2
O=C(c1ccccc1)c1ccc2c(c1)OCCCO2,/,0.59
COc1ccc(C(=O)CNc2ccccc2Br)cc1,0.15,-0.035
c1ccc(-c2nsc(N3CCNCC3)n2)cc1,/,-0.32
O=C(O)C1CC2C=CC1O2 (centres undefined),-0.5,/
CC(NC(=O)NCc1ccccc1)c1ccccc1 (centres undefined),2.2,-0.36
O=C(COC(=O)c1ccccc1F)Nc1ccccc1,-0.55,-0.5
Cc1ccc(N2C(=O)C3C4C=CC(CC4)C3C2=O)cc1Br (centres undefined),/,-0.1
CN1CCN(C(=O)Nc2ccc(Cc3ccc(NC(=O)N4CCN(C)CC4)cc3)cc2)CC1,-0.7,/
Cc1ccc(N2CC(=O)N(/N=C/c3ccncc3)CC2=O)cc1,-0.45,-0.34

# An excerpt; rates above refer to the full screens.
